HPGD block: inhibitors of human 15-hydroxyprostaglandin dehydrogenase (HPGD) | hit rate 4.3% among 150,000 | Potency, µM, for inactives: at the highest dose activity change, negative = inhibition, hits mostly inhibitors | purified HPGD, NADH fluorescence kinetic, PGE2 substrate | P15428 | AID 894; active = well fitted inhibition curve with a large enough effect (not every such curve was filed as active); inconclusive = small, poorly fitted or top-dose-only effect, or another doubt; inactive = no such curve, though single readings can be large or run the other way;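 note: top concentration of the series not given in the record; plate controls included wells without enzyme; inactives centre near -10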
Target sequence (P15428 whole entry, looked up): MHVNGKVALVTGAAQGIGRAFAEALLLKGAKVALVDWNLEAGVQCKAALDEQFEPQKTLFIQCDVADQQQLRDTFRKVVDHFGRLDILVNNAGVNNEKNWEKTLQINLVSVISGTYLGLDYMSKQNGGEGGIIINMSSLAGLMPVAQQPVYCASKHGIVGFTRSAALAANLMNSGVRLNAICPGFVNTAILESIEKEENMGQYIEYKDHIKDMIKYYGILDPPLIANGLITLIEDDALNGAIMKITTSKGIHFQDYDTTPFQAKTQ
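20 nM HPGD preincubated 15 min at room temperature with compound in 50 mM Tris-HCl pH 8, 0.01% Tween 20. Started with 1 mM NAD+ and 30 uM prostaglandin E2; NADH fluorescence (360/450 nm) read 5 times over 30-s intervals, last minus first.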
Starred values were filed as active, the others as inactive; ? = inconclusive; & = joins results of further samples. % is set by controls: 0 for no effect and ±100 for the full control effect; potency is the fitted concentration of half-maximal effect. Some of the compounds tested, so the mix of outcomes need not match the whole.

Cc1ccc(-n2c(Cc3cccn3C)nnc2SCC(=O)NCc2ccco2)cc1
- HPGD block = -11%

Cc1cc(C)n(CC(=O)N/N=C/c2ccc(C)o2)n1
- HPGD block = -5%

COc1ccc(C(=O)NC2(C(F)(F)F)C(=O)N(Cc3ccco3)C3=C2C(=O)CC(C)(C)C3)cc1OC (centres undefined)
- HPGD block = -4%

CCOC(=O)c1ccc(N=CC2=C(O)CC(C)(C)CC2=O)cc1
- HPGD block = ?

CC(C)CC(NS(=O)(=O)c1ccc2c(c1)oc(=O)n2C)C(=O)N1CC=C(c2ccccc2)CC1 (centres undefined)
- HPGD block = -9%

COc1ccc(C(=O)N2CCN(c3ccc(C)cc3)CC2)cc1OC
- HPGD block = -9%

COc1ccc(-n2c(=S)[nH]c3cc(C(=O)NCCCN4CCCC4=O)ccc3c2=O)cc1
- HPGD block = -9%

COC(=O)C1(C(=O)OC)Sc2ccccc2C1=O
- HPGD block = ?

Cc1ccc(CCNC(=O)CC2Oc3ccc(C)cc3NC2=O)cc1 (centres undefined)
- HPGD block = -5%

Cc1cccc(NC(=O)c2sc3nc(N)c(C#N)cc3c2N)c1
- HPGD block = -4%

Cc1nn(-c2ccccc2)c2c1/C(=N/O)CC(C)(C)C2
- HPGD block = 1%

O=C(Cn1nc(C(F)(F)F)c2c1CCCC2)NCc1ccco1
- HPGD block = -3%

O=C(Nc1ccc(-c2nc3ccccc3s2)cc1)c1cc(-n2cnnc2)ccc1Cl
- HPGD block = -28%

O=C(NCc1ccccn1)c1cc(-c2ccccc2)nc2ccccc12
- HPGD block = -17%

CC1(C)C(c2ccco2)=[N+]([O-])C2(CCCCC2=O)N1O (centres undefined)
- HPGD block = -13%

CNC(=S)N/N=C(\C)c1ccc(N2CCOCC2)cc1
- HPGD block = -18%

Cn1c(=N)n(CC(=O)c2cccs2)c2ccccc21
- HPGD block = -10%

CCOc1ccc(Cl)cc1S(=O)(=O)NCc1cccnc1
- HPGD block = 1%

CCOC(=O)c1sc(C)c2c1NC(C)(c1cccc3ccccc13)NC2=O (centres undefined)
- HPGD block = ?

COc1ccc(NC2=NC3(CCCCC3)N=C(N)N2)cc1
- HPGD block = -6%

Cn1cccc1C(=O)N1CCC2(CCCN(c3ccccc3)C2)CC1
- HPGD block = -13%

COCCN=c1scc(-c2cc(OC)ccc2OC)n1/N=C/c1c[nH]c2ccccc12
- HPGD block = -12%

Cc1cccc(NC(=O)c2oc3c(c2C)C(=O)CC(C)(C)C3)n1
- HPGD block = 4%

Cc1cc(C)c[n+](-c2nc3ccccc3nc2C(=C=[N-])C#N)c1
- HPGD block = -5%

O=S(=O)(NCc1ccccc1Br)c1cccs1
- HPGD block = ?

C=CCN1C(=O)NC(c2ccccc2)(C(F)(F)F)S/C1=C(\C#N)c1nnc(N2CCOCC2)n1-c1ccccc1 (centres undefined)
- HPGD block = -5%

CCN(C(=O)C1CCN(S(=O)(=O)c2cccc3nonc23)CC1)c1ccccc1
- HPGD block = ?

CSc1nc(N2CCOCC2)c2c3c(sc2n1)CCCC3
- HPGD block = -24%

COc1ccc(CC(=O)O/N=C(\N)Cc2cccc3ccccc23)cc1OC
- HPGD block = -8%

CN(C(=O)CN(CCO)CC(=O)N(C)C(C)(C)Cc1ccccc1)C(C)(C)Cc1ccccc1
- HPGD block = -14%&-4%

Cc1ccc(N(Cc2cc3ccccc3[nH]c2=O)S(=O)(=O)c2ccccc2)cc1
- HPGD block = -10%

CC(=O)c1cccc(Nc2cc(C)nc3c(C)cc(C)cc23)c1
- HPGD block = -9%

O=C(Cc1ccccc1)Nc1ccc(C(=O)O)cc1
- HPGD block = -15%

CCOC(=O)N1CCN(C(=O)c2ccc(N(Cc3ccc(C)cc3)S(C)(=O)=O)cc2)CC1
- HPGD block = -4%

CN(C)c1cccc(C(=O)Nc2ccc3nc4n(c(=O)c3c2)CCCCC4)c1
- HPGD block = -17%

COc1ccc(C2=CC(=O)OC(C)(c3ccccc3)O2)cc1 (centres undefined)
- HPGD block = ?

Nc1nnnn1/N=C/c1cccc(Oc2ccccc2)c1
- HPGD block = -2%

C/C(CC(=O)Nc1cccc2c1CCCC2)=N\NC(=O)c1ccccc1N
- HPGD block = ?

CCOC(=O)CN1C(=O)NC(C)(c2ccc(OC(F)F)cc2)C1=O (centres undefined)
- HPGD block = -13%

CCCCCCCNC(=O)c1ccc(N2CCC3(CC2)OCCO3)c([N+](=O)[O-])c1
- HPGD block = -14%

CSc1c(CC(=O)Nc2ccccc2C(F)(F)F)n(Cc2ccccc2)c2ccccc12
- HPGD block = -7%

O=c1cc(N2CCOCC2)[nH]c(=O)n1Cc1ccc(F)cc1
- HPGD block = -8%

CCCOc1cccc(-c2nnc(N)s2)c1
- HPGD block = -18%

COc1ccc(/C=C2\NC(=S)N(CC3CCCO3)C2=O)c(OC)c1 (centres undefined)
- HPGD block = -15%

COCCn1c(C)cc(C(=O)CSc2nc3nc(C)cc(C)n3n2)c1C
- HPGD block = -26%

CC1CCC(NC(=O)Cn2ncc3ccccc32)CC1 (centres undefined)
- HPGD block = 0%

CN(C)c1ccc(-c2nc3ccccn3c2/N=C/c2ccc(Br)cc2)cc1
- HPGD block = -28%

Cc1cc(Cl)ccc1OC(C)C(=O)N1CCCN(C(=O)C(C)Oc2ccc(Cl)cc2C)CC1 (centres undefined)
- HPGD block = -5%

c1ccc2c(N3CCCC3)nc(-c3ccncc3)nc2c1
- HPGD block = -5%

COC(=O)/C=C/c1ccsc1NC(C)=O
- HPGD block = -7%

CCC(C)NC(=O)CO/N=C/c1ccc(C(=O)OC)cc1 (centres undefined)
- HPGD block = -21%

OCCNC(=S)Nc1ccc(Cl)c(Cl)c1
- HPGD block = -7%

COc1ccc(/C=C/c2c([N+](=O)[O-])c(=O)n(C)c(=O)n2C)cc1O
- HPGD block = -14%

O=C(CSc1nccn1-c1ccccc1)Nc1ccc2c(c1)OCO2
- HPGD block = -18%

O=Cc1c(C(=O)O)n(CC(=O)O)c2ccccc12
- HPGD block = -16%

CCCCCOC(=O)Nc1nnc(CCC)s1
- HPGD block = -18%

CC(C)NS(=O)(=O)c1ccc(N2C(=O)c3ccccc3C2=O)cc1
- HPGD block = -8%

COc1cccc2c1N1C(=O)c3c(C(=O)O)cccc3C1CC2(C)C (centres undefined)
- HPGD block = 2%

CC1=NN(c2ccccc2)C(=O)C1(C)C
- HPGD block = -6%

CCOC(=O)C(C)Sc1nnc(Cn2c(=O)sc3ccccc32)n1-c1ccccc1 (centres undefined)
- HPGD block = -12%

CS(=O)(=O)N1CCCC(C(=O)NCc2ccccn2)C1 (centres undefined)
- HPGD block = -2%

COCCn1cnnc1SCC(=O)Nc1ccccc1C(=O)Nc1ccc2c(c1)OCO2
- HPGD block = 3%

CCC(=NC(C)c1ccccc1)c1c(O)n(C)c(=O)n(C)c1=O (centres undefined)
- HPGD block = -20%

FC(F)(F)c1ccccc1-c1cc(N2CCNCC2)ncn1
- HPGD block = -5%

CCOC(=O)c1cnc(SC)nc1Oc1cccc(NS(=O)(=O)c2ccc(F)cc2)c1
- HPGD block = -15%

O=c1nc2n(c3ccc(Br)cc13)CCS2
- HPGD block = -1%

COCCNC(=O)c1ccc(Cn2c(=S)[nH]c3cc4c(cc3c2=O)OCO4)cc1
- HPGD block = 13µM*

C=CCn1c(C)cc(C(=O)CSc2nnc(Cc3ccccc3)o2)c1C
- HPGD block = -19%

NC(N)=Nc1nc(CSCC/C(N)=N\S(N)(=O)=O)cs1
- HPGD block = -8%

CCN1CCN(c2nc3ccccc3nc2C(C#N)C(=O)OC2CCCCC2)CC1 (centres undefined)
- HPGD block = -8%

CC1(c2ccc3c(c2)OCO3)NC(=O)N(CC(=O)Nc2ccc(N3CCOCC3)cc2)C1=O (centres undefined)
- HPGD block = -11%

CC(C)Cn1c(/C=C/c2ccco2)nc2ccccc21
- HPGD block = ?

CCOC(=O)CCc1nc2ccccc2[nH]c1=O
- HPGD block = -23%

C(=Nc1ccc(Nc2ccccc2)cc1)c1ccc2ccccc2c1
- HPGD block = -23%

O=C(Nc1ccc(Cn2cccn2)cc1)c1ccc(COc2cccc(Br)c2)cc1
- HPGD block = -18%

CCC(C)Nc1nc(CN2CCOCC2)nc2sc3c(c12)CCC3 (centres undefined)
- HPGD block = -7%

O=C(Oc1ccc(Cl)c2cccnc12)N1CCOCC1
- HPGD block = ?

CN(CC(=O)Nc1ccccc1C(=O)N1CCCC1)S(=O)(=O)c1ccc(Br)cc1
- HPGD block = -4%

O=c1n(-c2cccc(Cl)c2)c(=O)n2n1CCC2
- HPGD block = -11%

COc1ccc(CNC(=O)CS(=O)Cc2nc(-c3ccc(C)cc3)oc2C)cc1 (centres undefined)
- HPGD block = -10%

CCOC(=O)Cc1csc(NC(=O)COc2ccc(N(C)S(=O)(=O)c3cccs3)cc2)n1
- HPGD block = -7%

CNC(=O)c1nc(C)n(-c2cc(Cl)cc(Cl)c2)n1
- HPGD block = -2%

CCOC(=O)N1CCC(NC(=O)CCN2C(=O)COc3ccccc32)CC1
- HPGD block = -6%

CC1CCCN(C(=O)c2ccc3c(c2NCCO)C(=O)c2ccccc2C3=O)C1 (centres undefined)
- HPGD block = ?

O=C(O)C1CCN(C(=O)NC2CCCCC2)CC1
- HPGD block = -7%

CC(SCc1ccccc1)C(=O)NC1CCCC1 (centres undefined)
- HPGD block = -13%

O=C(O)CCN1C(=O)c2ccc(NC(=O)CSc3ccccc3)cc2C1=O
- HPGD block = 20µM*

CCOc1cc2c(cc1OC)C(NC(=O)C(F)(F)F)CC2=O (centres undefined)
- HPGD block = -15%

O=C(c1ccco1)n1nc(-c2ccc(Cl)cc2)nc1NCc1ccco1
- HPGD block = ?

CCOC(=O)N1CCN(C(=O)CSc2ccccc2)CC1
- HPGD block = 10µM*

O=c1oc(Nc2ccc(F)cc2)nc2ccccc12
- HPGD block = ?

Cc1ccc(/C=N/NC(=O)C2CC(=O)N(c3ccccc3)C2)s1 (centres undefined)
- HPGD block = -9%

CCOc1c(Br)cc(/C=N\NC(=O)c2ccccc2)cc1OC
- HPGD block = -9%

O=C(CSc1ccc2nnc(-c3ccncc3)n2n1)N1CCc2ccccc21
- HPGD block = -8%

CCOc1ccc(NC(=O)CSc2nc3c(c(=O)n2-c2ccccc2OC)SCC3)cc1
- HPGD block = -8%

C=CCc1c(OC)ccc2ccc(=O)oc12
- HPGD block = ?

CCN1C/C(=C\c2cccc([N+](=O)[O-])c2)C(=O)/C(=C/c2cccc([N+](=O)[O-])c2)C1
- HPGD block = -15%

Cc1cc(SCC(=O)NCCN2C(=O)CSC2=O)nc2ccccc12
- HPGD block = -25%

O=S(=O)(NCCOc1ccc(F)cc1)c1ccc2c(c1)OCCO2
- HPGD block = -2%

O=C(CCC(=O)OCc1ccc(C(=O)Oc2ccccc2)cc1)Nc1cccc2ccccc12
- HPGD block = -2%

Cc1ccccc1CN1C(=O)Nc2ccccc2C(=O)N1C(C)(C)C
- HPGD block = 1%

CCCOc1ccc(C(C)=O)cc1CSCCC#N
- HPGD block = -15%

O=C(NCC1CCCO1)c1c(O)c2c([nH]c1=O)CCCC2 (centres undefined)
- HPGD block = ?

CCNc1c([N+](=O)[O-])ncn1C
- HPGD block = -3%

CNc1oc(-c2cccc3ccccc23)nc1C#N
- HPGD block = ?

COc1cccc2cc(C(=O)NC(C)C3CCCO3)c(=O)oc12 (centres undefined)
- HPGD block = -26%

CCCC1N2CC3([N+](=O)[O-])CN1CC([N+](=O)[O-])(C2)C3(C)C (centres undefined)
- HPGD block = -6%

CC1CCc2c(nc3ncnn3c2Nc2ccc(OC(F)(F)F)cc2)C1 (centres undefined)
- HPGD block = -2%

Oc1ccccc1C1=Nc2ncnn2C(c2ccccc2)C1 (centres undefined)
- HPGD block = -9%

COc1cc([N+](=O)[O-])ccc1NC(=O)CN(C)C
- HPGD block = -15%

COc1ccc(C2c3[nH]c4ccccc4c3CC3C(=O)N(CCc4ccc(OC)c(OC)c4)CC(=O)N32)cc1 (centres undefined)
- HPGD block = -12%

O=C(O)c1ccc(-c2nc3ccccc3[nH]2)cc1
- HPGD block = ?

CC(=O)NN1C(=O)/C(=C/c2ccc(C(C)C)cc2)SC1=S
- HPGD block = -30%

COc1ccc2c(Cl)c(C(=O)NCc3ccco3)sc2c1
- HPGD block = 14µM*

Cc1ccc(S(=O)(=O)NCC2CCC(C(=O)NCCCN3CCOCC3)CC2)cc1 (centres undefined)
- HPGD block = 5%

N#C/C(=C/c1cn(-c2ccccc2)nc1-c1cccc(OCc2ccc(F)cc2)c1)C(=O)NCCCn1ccnc1
- HPGD block = ?

O=C(NCCCCN1CCCC1)c1ccc(-n2c(=O)c(=O)[nH]c3ccccc32)cc1
- HPGD block = -1%

O=C(O)c1cc(Cl)cc(Cl)c1
- HPGD block = -4%

O=C(NC1CCCCCCC1)C1CCC(CNc2c(N3CCCC3)c(=O)c2=O)CC1 (centres undefined)
- HPGD block = 4µM*

Cc1nnc(NC(=O)CCSc2ccccc2)s1
- HPGD block = -18%

Cc1ccc(S(=O)(=O)NCC(c2cccnc2)N(C)C)cc1 (centres undefined)
- HPGD block = -9%

O=C(C1CCN(S(=O)(=O)N2CCOCC2)CC1)N1CCN(Cc2ccc3c(c2)OCO3)CC1
- HPGD block = -4%

O=c1c2cn[nH]c2[nH]c(=S)n1-c1cccc(Cl)c1
- HPGD block = -17%

COc1ccc(-c2cnc3c(c2)CCC3(C#N)C#N)cc1
- HPGD block = ?

COc1ccc(-c2cc(C(F)(F)F)n3nc(C(=O)Nc4cc(C)on4)cc3n2)cc1OC
- HPGD block = ?

CC(C)CCN(CCC(C)C)C/C(O)=C(\C#N)c1nc(-c2ccccc2)cs1
- HPGD block = -21%

Shown comma-delimited: part of the list above
molecule,HPGD block
O=C(C1CCN(S(=O)(=O)N2CCOCC2)CC1)N1CCN(Cc2ccc3c(c2)OCO3)CC1,-4%
Cc1ccc(S(=O)(=O)NCC(c2cccnc2)N(C)C)cc1 (centres undefined),-9%
COc1ccc(-c2cnc3c(c2)CCC3(C#N)C#N)cc1,?
COc1ccc(-c2cc(C(F)(F)F)n3nc(C(=O)Nc4cc(C)on4)cc3n2)cc1OC,?
